UCH37 inh = blocks the human deubiquitinase UCH37; Q9Y5K5; 0.33% of 330,000 active; purified proteasome/UCH37, Ub-AMC cleavage fluorescence; AID 588478; inhibition, % (test concentration not listed);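 active = mean of two replicates above 20%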;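 also: 0% = compound-free wells with enzyme and 100% = wells lacking proteasome; stock transfer was 100 nL into about 20 µL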
Target sequence (Q9Y5K5 whole entry, looked up): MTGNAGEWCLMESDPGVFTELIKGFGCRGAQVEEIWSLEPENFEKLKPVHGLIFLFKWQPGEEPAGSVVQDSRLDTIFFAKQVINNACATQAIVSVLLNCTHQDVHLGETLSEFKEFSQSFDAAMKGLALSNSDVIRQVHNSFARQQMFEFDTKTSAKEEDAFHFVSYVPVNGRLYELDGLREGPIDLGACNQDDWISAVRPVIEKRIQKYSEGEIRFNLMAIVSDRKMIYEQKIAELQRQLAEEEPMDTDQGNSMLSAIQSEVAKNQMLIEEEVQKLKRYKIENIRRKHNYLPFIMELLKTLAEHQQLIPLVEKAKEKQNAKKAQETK
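Signal – fluorescence, ex 355 nm, em 460 nm · System – Proteasome-bound UCH37 · Input – 0.15 nM proteasome as dispensed · Timing – 30 min preincubation with enzyme, 25 min cleavage at room temperature · Read-out basis – percent inhibition of cleavage signal versus uninhibited and no-proteasome wells · Medium – Tris-HCl pH 7.4 with ATP-MgCl2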
HNF4A DNA FP = change in binding of human HNF4 alpha to DNA. HNF4a-FITC DNA binding, fluorescence polarization, 1 h. activity change, % at 10 µM. 0.3% of 360,000 active; in the data active = activity change above about 30%, passing the limit was not always enough;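 also: controls were the assay level and a saturating level of protein; the project sought stronger binding though the title names inhibitors; some compounds called inactive have numbers as strong as hits; positive values seem to mean higher polarization but the record does not say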
FGF22 binding = binders of recombinant human FGF22 by thermal shift | Q9HCT0 | SYPRO orange fluorescence; percent of sucrose octasulfate shift, DMSO zero | calls only at 9.99 µM | 1.5% of 340,000 active | AID 651658;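 active = melting point raised past a set limit in the mean and every replicate; inconclusive = no clear call; three in four hits are not shown here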
E coli growth = inhibitors of Escherichia coli growth; OD600, 23 h; hits give low values; OD600 absorbance (no concentration beside the values); 0.21% of 330,000 active; AID 1053175;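 active = OD600 absorbance below the run mean of sample wells minus 3.6 SD, in any replicate, cut at about 0.56 in these data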;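 also: stock transfer was 300 nL into about 60 µL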
Beta2AR agonist = human beta-2 adrenergic receptor agonism by FAP; 0.43% of 340,000 active; Am2.2-beta2AR cells, FAP receptor internalization, flow cytometry; reference of the scale not given here; response, % (test concentration not listed); P07550;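 active = response above a set limit, near 3 SD of response in nonfluorescent compounds, cut at about 42% in these data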;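 also: stock transfer was 100 nL into about 11 µL; a reference agonist was the positive control; negative values mostly stem from fluorescent compounds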
Target sequence (P07550 whole entry, looked up): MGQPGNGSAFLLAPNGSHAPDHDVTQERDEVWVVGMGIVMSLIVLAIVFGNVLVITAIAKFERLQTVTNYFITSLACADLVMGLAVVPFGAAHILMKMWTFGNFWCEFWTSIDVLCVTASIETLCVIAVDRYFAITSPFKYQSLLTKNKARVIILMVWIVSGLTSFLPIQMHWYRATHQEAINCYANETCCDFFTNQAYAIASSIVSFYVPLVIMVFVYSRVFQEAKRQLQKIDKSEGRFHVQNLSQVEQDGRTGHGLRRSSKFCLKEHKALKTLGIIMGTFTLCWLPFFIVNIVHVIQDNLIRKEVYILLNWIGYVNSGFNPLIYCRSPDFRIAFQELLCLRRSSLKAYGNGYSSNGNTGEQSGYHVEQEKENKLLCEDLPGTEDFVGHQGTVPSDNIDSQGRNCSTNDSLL
ALR H2O2 inh = blocks human ALR sulfhydryl oxidase activity | purified ALR, DTT oxidation, H2O2 HRP-luminol luminescence | AID 485317 | 3.8% of 290,000 active | inhibition, % (no concentration beside the values);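 active = mean and each replicate at 75% or more; inconclusive = only one of the two met; inactive = neither met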;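 also: stock transfer was 7.5 nL into about 7.5 µL; 0% = neutral wells and 100% = wells with inactivated enzyme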
Target sequence (P55789 whole entry, looked up): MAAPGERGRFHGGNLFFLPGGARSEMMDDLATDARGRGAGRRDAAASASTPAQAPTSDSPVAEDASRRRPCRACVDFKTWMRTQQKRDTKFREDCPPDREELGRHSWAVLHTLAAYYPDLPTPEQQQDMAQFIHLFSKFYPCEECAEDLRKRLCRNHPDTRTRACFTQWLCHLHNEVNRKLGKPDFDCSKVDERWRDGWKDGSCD
LANA-H2B inh = blocks KSHV LANA binding to histone H2A/H2B. Q9QR71. 0.6% of 320,000 active. cell-free LANA-H2A/H2B peptide, fluorescence polarization. inhibition, % (test concentration not listed); in the data active = inhibition mostly above about 10%, no sharp cut-off; inactive = mostly below about 6.7%;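 also: stock transfer was 7.5 nL into about 10 µL; 0% = median of vehicle wells and 100% = median of positive control wells; one replicate is shown; the record names a cut of 25% in any replicate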
Active calls of the source: *; i = inactive; u = inconclusive; x = not tested or not shown. A portion of the library, so the mix of outcomes need not match the whole.

SMILES	UCH37 inh	HNF4A DNA FP	FGF22 binding	E coli growth	Beta2AR agonist	ALR H2O2 inh	LANA-H2B inh
CC1(C)c2[nH]c3ccccc3c2C[C@@H]2C(=O)N(Cc3ccco3)C(=O)N21	-0.1	-5.4	i	x	-6.6	-2.1	-2.0
CN(Cc1ccccc1)C(=O)c1cccc(N2C(=O)C3CC=CCC3C2=O)c1 (centres undefined)	0.7	3.3	i	0.676	-5.6	-8.6	2.3
COC(=O)c1ccc(NCCC(=O)O)cc1	4.3	-1.5	i	0.679	4.2	-5.3	0.9
COc1ccc(Oc2nc3c(c(=O)n(C)c(=O)n3C)n2Cc2ccccc2)cc1	4.0	-2.4	x	0.711	-4.1	1.3	1.5
Cc1cc(=O)n2nc(N3CCCC(C(=O)NCCCN4CC(C)CC(C)C4)C3)sc2n1 (centres undefined)	0.1	-0.5	i	0.627	3.7	2.3	-5.9
Oc1ccc(/C=N/Nc2ncc(Br)cn2)c(O)c1	x	2.5	x	x	-12.2	26.3	-1.4
O=C(Nc1nccs1)C(=O)c1c[nH]c2ccccc12	1.9	1.8	x	0.72	6.8	-9.3	1.1
COCC1CCN(C(=O)c2ccc3oc(Cc4ccccc4)nc3c2)C1 (centres undefined)	1.9	-7.5	i	0.682	-4.0	-0.5	4.4
c1ccc(Cn2nnnc2C(c2cccs2)N2CCCCCC2)cc1 (centres undefined)	1.8	-0.4	x	0.667	2.4	-2.1	-2.4
COc1cc(OC)cc(-n2nnnc2SCC(=O)NCCc2ccc(OC)c(OC)c2)c1	4.7	1.9	i	0.7	7.2	x	0.4
CC(C)=CCC/C(C)=C/C=N/NC(=O)c1ccc([N+](=O)[O-])cc1	x	-2.1	x	x	-2.1	-5.7	2.2
CCn1c(-c2csc(-c3ccc(Cl)cc3)n2)n[nH]c1=S	-2.1	1.6	x	0.693	2.2	1.2	3.0
CCc1cccc(NC(=O)Cc2ccc([N+](=O)[O-])cc2)c1	1.6	-0.4	x	0.703	4.5	x	-1.0
N#CCCN(C(=O)CN1CCN(S(=O)(=O)c2ccc3c(c2)OCCO3)CC1)c1ccc(F)cc1	0.1	-1.2	i	0.682	4.7	4.6	-4.5
Nc1nonc1-n1nnc(C(=O)N/N=C/c2ccccc2O)c1CN1CCCC1	x	7.2	i	x	-4.9	-0.5	4.4
Cc1oc(C(C)(C)C)cc1C(=O)Nc1ccc(N2CCOCC2)cc1	5.9	-0.9	i	0.702	0.1	2.4	0.1
O=C(C1=C[C@H](c2ccc(C(F)(F)F)cc2)C[C@H](OCc2ccc(CO)cc2)O1)N1CCN(Cc2ccccc2)CC1	3.8	5.2	i	x	21.4	0.2	-0.7
CCC(=O)NC(=S)NNC(=O)c1ccc(OC)cc1	3.5	-3.6	x	0.458*	6.8	58.8	0.7
O=C(Nc1nnc(C2CC2)s1)C1Cc2ccccc2CN1S(=O)(=O)c1ccccc1F (centres undefined)	-0.4	-5.8	i	0.685	-2.7	-5.6	-0.5
COC(=O)c1ccc(C)c(NS(=O)(=O)c2ccc(NC(C)=O)cc2)c1	0.4	-2.0	i	0.638	5.0	-2.3	-4.5
O=C1COc2ccc(C(=O)NCc3ccc4c(c3)OCO4)cc2N1	0.5	1.9	x	0.637	-1.4	1.7	3.6
COc1ccc(CCNC(=O)c2cc3c(=O)n4cccc(C)c4nc3s2)cc1OC	-109.7	2.7	i	0.666	5.8	-11.6	-4.3
CCCn1nnnc1NCc1ccccc1Cl	7.4	1.7	i	0.716	3.9	-0.7	-2.1
COc1ccc(S(=O)(=O)NCC2CCCO2)cc1Cl (centres undefined)	x	0.0	i	x	4.2	-0.1	3.5
O=C(N/N=C/c1cc(Br)c(O)c(Br)c1O)c1ccc2c(c1)OCCO2	x	-1.7	i	x	9.3	x	1.4
O=C(CSc1nnc(Cc2cccs2)n1Cc1ccco1)Nc1cccc(Cl)c1	4.9	1.0	x	0.723	-10.3	25.4	4.4
COc1ccc(N2CCN(C3CCCCC3NS(=O)(=O)c3ccccc3)CC2)cc1 (centres undefined)	0.4	0.8	i	0.655	8.4	28.6	-2.9
CC(=O)c1ccc(Nc2ccc(-c3ccccc3F)nn2)cc1	x	4.9	i	x	29.9	-1.0	-0.9
CC1CCCN(C(=O)c2cc3ccccc3cc2O)C1 (centres undefined)	-1.7	0.7	i	0.713	-6.0	3.7	-10.2
Cc1cc(=O)[nH]c(N2CCN(c3ccc(Cl)cc3)CC2)n1	x	-4.3	i	x	5.5	x	-4.9

Entries of single compounds as entered above.
`COC(=O)c1ccc(C)c(NS(=O)(=O)c2ccc(NC(C)=O)cc2)c1` reads UCH37 inh = 0.4; HNF4A DNA FP = -2.0; FGF22 binding = i; E coli growth = 0.638; Beta2AR agonist = 5.0; ALR H2O2 inh = -2.3; LANA-H2B inh = -4.5
`Cc1cc(=O)[nH]c(N2CCN(c3ccc(Cl)cc3)CC2)n1` reads UCH37 inh = x; HNF4A DNA FP = -4.3; FGF22 binding = i; E coli growth = x; Beta2AR agonist = 5.5; ALR H2O2 inh = x; LANA-H2B inh = -4.9

The list goes on.
SMILES	UCH37 inh	HNF4A DNA FP	FGF22 binding	E coli growth	Beta2AR agonist	ALR H2O2 inh	LANA-H2B inh
CN1CCN(CCOc2ccc(Cl)c(Cl)c2)CC1	0.8	-1.1	x	0.61	13.8	-0.9	-2.6
S=C(Nc1cccc(Br)c1)N1CCn2cccc2C1c1cccnc1 (centres undefined)	-1.0	-3.1	i	0.69	-3.2	2.0	-3.8
CCOCCn1c2ccccc2c2nc3ccccc3nc21	-21.2	-4.1	i	0.701	1.2	0.3	3.0
COc1ccc(OC)c(S(=O)(=O)Nc2ccc3c(c2)C(=O)OC3)c1	0.7	-1.4	i	0.7	4.8	-2.6	-3.5
CC(=O)NC(C)C(=O)OCc1ccc(Cl)cc1Cl (centres undefined)	0.7	2.1	x	0.721	-4.4	2.0	1.6
Cc1ccccc1NC(=S)NCc1ccccc1	1.2	1.7	x	0.678	-2.4	13.0	-6.2
Cc1ccc(C)c(SCC(=O)NC(=O)NC2CCCC2)c1	2.1	-1.8	i	0.68	3.8	x	x
CCN1C(=O)C(O)(CC(=O)c2cc(C)ccc2C)c2ccccc21 (centres undefined)	-0.9	-0.8	x	0.724	-3.4	-8.5	2.0
O=C(Nc1ccon1)c1cc2c(s1)CCCCCC2	-0.2	-2.5	x	0.671	-8.2	0.7	0.4
Cc1ccc(C2C3=C(CC(C)(C)CC3=O)Nc3onc(C)c32)cc1 (centres undefined)	-185.0	-2.1	x	0.76	-2.6	x	3.6
CSCCNC(=O)c1ccc2nc(Cc3ccccc3F)oc2c1	2.0	0.3	i	0.652	1.3	x	-0.8
Cn1c(CNC(=O)c2ccco2)nnc1SCC(=O)Nc1ccc(Cl)cc1	5.9	-1.2	i	0.678	3.2	23.5	0.6
CSc1ccc(-c2nc(O)c3cnccn23)cc1	0.1	0.2	i	0.682	-9.1	u	0.0
CCc1ccc(OCC(=O)Nc2ccc(-c3cc4ccccc4oc3=O)c(OC)c2)cc1	-478.8	2.7	x	0.736	-8.0	-1.9	2.3
CC(/C=N/NC(=O)c1ccncc1)=C\c1ccccc1	x	-3.3	i	x	-9.3	x	1.7
CCOC(=O)C1=C(c2ccccc2)NC(=O)NC1c1ccc(N(C)C)cc1 (centres undefined)	3.1	1.3	i	0.674	-3.7	99.0*	0.7
CCOc1ccc(CCNC(=O)COC(=O)COc2cc(C)cc(C)c2)cc1OCC	0.8	3.2	i	0.686	-6.9	-9.6	-2.5
Cc1cc(S(=O)(=O)N2CCN(C(=O)c3ccco3)CC2)ccc1F	0.5	-4.9	i	0.64	2.4	-5.0	1.2
COc1cccc(CNS(=O)(=O)c2cc(-c3cc(C)no3)ccc2C(C)C)c1	1.7	1.1	i	0.72	7.1	-2.7	1.9
COc1ccccc1NS(=O)(=O)c1ccc(C(=O)NCC(c2cccs2)N2CCOCC2)cc1 (centres undefined)	x	-0.2	i	x	-4.9	-5.3	-6.6
COc1ccc(OC)c(C(=O)NC(CC(N)=O)c2ccc(NCCN3CCCCC3)c([N+](=O)[O-])c2)c1 (centres undefined)	-0.4	-0.5	i	0.738	-4.1	x	3.2
COc1ccccc1/C=C/C=C1N=C(/C=C/c2ccc(Cl)cc2)OC/1=O	14.6	7.0	x	0.669	-24.0	2.9	0.7
O=C(NC1CCS(=O)(=O)C1)c1cccnc1 (centres undefined)	3.2	x	x	0.667	x	4.2	0.2
CCOC(=O)C1=C(CC)Nc2ccccc2N=C1NC(=O)c1ccc(OC)c(S(=O)(=O)N2CCCCC2C)c1 (centres undefined)	1.0	-1.1	i	0.675	1.5	-11.3	-0.4
CCCCNc1nc(Nc2ccc(C)c(Cl)c2)c2cnn(C)c2n1	-4.1	0.0	i	0.707	-7.6	5.4	-3.1
CN(C)c1ccc(C(=S)N2CCCCCC2)cc1	4.3	1.0	x	0.648	2.5	98.3*	3.3
O=C(C/C=N/OCc1ccccc1F)c1cnc(-c2ccc(Cl)cc2)s1	x	5.5	x	x	2.3	0.7	-2.0
CC12CCC(C(=O)Nc3cc(Cl)ccc3Cl)(C(Br)C1=O)C2(C)C (centres undefined)	3.3	-4.7	x	0.722	-9.1	-11.4	1.0
CCCN1C(=S)SC(C)(C)C1/[N+]([O-])=C/c1cccnc1 (centres undefined)	2.2	2.6	x	0.699	1.5	-8.4	1.2
N#CCCN(C(=O)CN1CCN(S(=O)(=O)c2ccc(Cl)s2)CC1)c1ccc(F)cc1	-2.1	-0.1	i	0.663	0.3	-6.4	-2.4
CC(C)(C)c1ccc(C(=O)NC(=S)Nc2nc3c(s2)CCCC3)cc1	4.6	1.8	i	0.777	28.7	-3.3	3.3
O=C(Nc1ccccc1)Nc1nnc(Cc2ccc(F)cc2)s1	3.0	1.5	i	0.719	-10.1	-10.2	-0.6
O=C(Nc1ccccc1)C1=C[C@H](c2csc3ccccc23)C[C@H](OCc2ccc(CO)cc2)O1	2.6	0.3	i	x	1.8	1.2	4.6
COc1ccc(OC)c(C(=O)NC(CC(N)=O)c2ccc(NCc3ccccn3)c([N+](=O)[O-])c2)c1 (centres undefined)	4.1	0.9	i	0.711	7.8	-6.5	2.2
Cc1ccc(CNC(=O)C2CCN(S(=O)(=O)N3CC(C)CC(C)C3)CC2)cc1 (centres undefined)	0.3	-2.7	i	0.694	-5.2	-4.9	2.7
O=C(c1ccccc1)N1CC(COc2ccccc2)OC(c2cccnc2)O1 (centres undefined)	3.3	-1.0	x	0.796	-14.3	x	0.4
CCOC(=O)/C(C#N)=C\c1ccc(N2CCN(C)CC2)cc1	5.4	6.8	x	0.677	-1.4	-1.8	-1.6
CN(c1cccnc1)c1ncnc2[nH]ncc12	2.3	-3.5	i	0.735	-2.5	-1.2	-1.3
CCC(=O)N1N=C(c2ccc(NS(C)(=O)=O)cc2)CC1c1ccc(N(C)C)cc1 (centres undefined)	-15.5	-1.1	i	0.741	1.4	34.7	2.5
CC(=O)N1CCN(S(=O)(=O)c2cccc(C(=O)NC3CCCC3)c2)CC1	2.7	2.5	i	0.7	-7.7	x	0.7
CC(C)C(=O)Nc1nnc(SCC(=O)NCc2cccs2)s1	4.9	-3.6	x	0.694	-3.0	-0.2	2.2
O=C(NCCc1ccccc1)C1CCN(C(=O)c2ccc([N+](=O)[O-])cc2)CC1	4.5	0.1	i	0.695	0.8	-13.0	4.1
CCSc1nc2ccccc2n1CCOc1ccccc1	-1.7	-2.0	x	0.703	2.7	-4.1	2.0
O=C(OCC(=O)c1cccs1)c1ccc(NC(=O)c2ccco2)cc1	0.0	5.8	x	0.62	-7.4	0.0	-1.3
COc1ccccc1C(=O)NC(=S)/C=C1/N(C)c2ccccc2C1(C)C	3.6	15.6	i	0.702	-7.0	x	x
Cc1ccc(S(=O)(=O)N(C)C)cc1NC(=O)COC(=O)COc1ccc2c(c1)CCC2	2.2	5.4	x	0.709	4.1	-0.7	-2.3
COC(=O)C1=C(C)N=C2SC(C#N)=C(N)N2C1c1ccc(OC)cc1 (centres undefined)	-4.0	-0.2	x	0.708	12.0	59.1	3.4

Screening results as filed in PubChem.
